# Assay outcomes: PubChem, ICCB-Longwood Screening Facility, Harvard Medical School
# Ba CapD inh – CapD enzyme inhibition; purified CapD enzyme, fluorescence intensity read-out; active compounds read low; some hits fall short of the stated cut; z-score (concentration not given with the values); 140,000 compounds, 0.23% hits;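 active = z-score under -4 in either of two replicates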;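 also: stock transfer was 100 nL into about 40 µL; score is relative to mean and spread of the plate; one replicate is shown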
# AID504770 – E. coli YBA685 growth inhibition, screen for V. cholerae RctB inhibitors | E. coli YBA685 rctB-dependent plasmid, OD600 growth, 3 h; active compounds read low | z-score (concentration not given with the values) | 130,000 compounds, 0.27% hits | AID 504770;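 active = z-score under -2 on both plates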;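 also: wells of about 30 µL received 100 nL stock; score is relative to mean and SD of the test wells; the first replicate is given; strong numbers were not always called active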
# * = called active by the depositor; . = no result given.
# Values run as follows: AID504770 | Ba CapD inh
O=C(c1ccco1)N1C(=O)c2cccc3cccc1c23
    1.2 | -1.3
CC1(C)C(=O)Nc2ccccc2N1C(=O)CSc1ncnc2ccccc12
    0 | .
CC1(C)CCCC2=C1CC1C(=O)NNC(=O)C1C2 (configuration not stated)
    -0.7 | .
FC(F)(F)Oc1ccc(-c2noc(-c3ccno3)n2)cc1
    1.4 | 0.055
COCCNC(=O)c1ccc(S(=O)(=O)N2CCC(C)CC2)cc1
    -0.25 | .
Clc1ccc(OCCOc2ccc(Cl)cc2Cl)c(Cl)c1
    . | -0.27
CN(C)c1nc(-c2ccccc2)ns1
    -0.9 | 0.12
COc1ccc(C2=N/C(=C/c3c(C)nn(-c4ccccc4)c3N3CCCCC3)C(=O)O2)cc1OC
    -0.15 | -1.4
O=C1CCCC(O)=C1N=Nc1ccccc1C(=O)O
    0.6 | .
CCOC(=O)N=S(N)(=O)c1ccc(Cl)cc1 (configuration not stated)
    -0.65 | 0.21
CCN(CC)c1ccc(/C=C2\CCC(/C=N/NC(=O)c3ccoc3C)=C2N2CCOCC2)cc1
    0.75 | .
CC(C)CCNC(=O)C1CCN(Cc2ccccc2Cl)CC1
    -0.85 | .
COc1ccc(N(CCC(=O)O)S(=O)(=O)c2cccc(Cl)c2)cc1
    0.35 | .
CCCN(C(=O)C(c1ccccc1)c1ccccc1)C1CCN(C)CC1
    . | -0.03
NC(=O)CSc1nncc2ccccc12
    . | 1.1

# Taken from the listing for reference:
# Values run as follows: AID504770 | Ba CapD inh
O=C(c1ccco1)N1C(=O)c2cccc3cccc1c23
    1.2 | -1.3
CC1(C)C(=O)Nc2ccccc2N1C(=O)CSc1ncnc2ccccc12
    0 | .
CC1(C)CCCC2=C1CC1C(=O)NNC(=O)C1C2 (configuration not stated)
    -0.7 | .
FC(F)(F)Oc1ccc(-c2noc(-c3ccno3)n2)cc1
    1.4 | 0.055
COCCNC(=O)c1ccc(S(=O)(=O)N2CCC(C)CC2)cc1
    -0.25 | .

# The results go on.
# Values run as follows: AID504770 | Ba CapD inh
CN(C(=O)Cn1nc(Cc2ccncc2)c2ccccc2c1=O)C1CCCCC1
    1.2 | -1.3
COc1cc(OC)c(-c2ccccc2)nn1
    -0.1 | 0.27
CCN(CC)Cc1ccc(O)c2ncccc12
    -0.55 | -2.2
CC1CN(C/C(N)=N/S(=O)(=O)c2cc(Cl)cc(Cl)c2)CC(C)O1 (configuration not stated)
    -0.6 | -0.49
CN(CC(=O)Nc1ccc(C(N)=O)cc1)Cc1ccc(C(F)(F)F)cc1
    -0.25 | .
CCCCCc1ccc(S(=O)(=O)Nc2cccnc2Oc2ccc(Cl)cc2)cc1
    . | -0.35
O=C(O)c1c(F)c(F)c(F)c(F)c1Nc1cccc(C(F)(F)F)c1
    0.8 | -0.17
CC(C)Oc1cccc(OCC(F)(F)F)c1C#N
    . | 0.38
CCc1ccccc1NCC(=O)Nc1cccc(OC)c1
    -0.3 | .
O=c1c2ccc(-c3nnc4n3-c3ccccc3SC4)cc2nc2n1CCCCC2
    0.45 | .
Cc1cccc2c1N(C(=O)c1c(-c3c(Cl)cccc3Cl)noc1C)CCC2
    -0.8 | 0.3
O=C1CCC(C(=O)OCc2cccc(C(F)(F)F)c2)=NN1
    -0.45 | .
CC(N)COc1ccc(Cl)cc1 (configuration not stated)
    -1.1 | .
CN(C1CCCCC1)S(=O)(=O)c1ccccc1C#N
    -0.3 | .
Cc1cc(C)nc(NNC(=S)Nc2ccc(S(=O)(=O)N3CCOCC3)cc2)n1
    0.6 | .

# Following part
# Values run as follows: AID504770 | Ba CapD inh
Cc1nnc(SCC(=O)NCc2ccccc2)n1C(C)C
    -0.1 | 1.2
COc1ccc(Cl)cc1NC(=O)c1nnn(CC(=O)Nc2c(C)cc(C)cc2C)c1N
    -1.1 | .
NC(=O)c1c(NC(=S)NC(=O)c2ccccc2Cl)sc2c1CCCC2
    0.95 | -0.2
CC(C)(C)C(=O)[C@H]1[C@H](c2ccc(Br)cc2)C(C#N)(C#N)[C@@H]2c3ccccc3C=CN21
    . | 5.9
COc1ccccc1CNC(=O)CC1=C(C)/C(=C/c2ccc(S(C)=O)cc2)c2ccc(F)cc21 (configuration not stated)
    . | -0.75
CCC(C)NS(=O)(=O)c1ccc(S(=O)(=O)N(Cc2ccc(C)o2)C2CCCC2)cc1 (configuration not stated)
    0.9 | .
Brc1ccc(N=Cc2ccc[nH]2)cc1
    0.2 | 0.1
COC(=O)c1cc(C)c(-c2ccc(-c3ccccc3F)cc2)s1
    . | 79
Cc1ccc(-n2nc(-c3ccco3)cc2C(=O)O)cc1
    -0.6 | 4
Cc1ccc(-c2csc3[nH]c(=S)[nH]c(=O)c23)c(C)c1
    . | -1
O=C1c2ccccc2NC2(C(=O)N(Cc3c(Cl)cccc3Cl)c3ccccc32)N1c1cccc(C(F)(F)F)c1 (configuration not stated)
    . | 0.42
COC(=O)C1CC2(C(=O)O)CC(C(=O)O)(CC(C(=O)OC)C2=O)C1=O (configuration not stated)
    -0.8 | .
CCN1CCCC1CNC(=O)c1ccc2nc(N3CCC(C)CC3)sc2c1 (configuration not stated)
    -0.9 | 7.3
CC1CC(=O)N(CC(=O)Nc2ccccc2)c2ccccc2S1(=O)=O (configuration not stated)
    -0.85 | .
O=C(NCCNc1ccccc1)OCCCc1ccccc1
    . | -0.46

# Retrieved by compound from the entries so far (6):
# Values run as follows: AID504770 | Ba CapD inh
CCC(C)NS(=O)(=O)c1ccc(S(=O)(=O)N(Cc2ccc(C)o2)C2CCCC2)cc1 (configuration not stated)
    0.9 | .
CC1CC(=O)N(CC(=O)Nc2ccccc2)c2ccccc2S1(=O)=O (configuration not stated)
    -0.85 | .
COC(=O)c1cc(C)c(-c2ccc(-c3ccccc3F)cc2)s1
    . | 79
Cc1ccc(-c2csc3[nH]c(=S)[nH]c(=O)c23)c(C)c1
    . | -1
COC(=O)C1CC2(C(=O)O)CC(C(=O)O)(CC(C(=O)OC)C2=O)C1=O (configuration not stated)
    -0.8 | .
CCN1CCCC1CNC(=O)c1ccc2nc(N3CCC(C)CC3)sc2c1 (configuration not stated)
    -0.9 | 7.3

# Remaining list, next part.
# Values run as follows: AID504770 | Ba CapD inh
Cc1cc(=O)oc2[nH]c(=S)[nH]c(=O)c12
    -0.35 | 0.035
O=C(CSc1n[nH]c(-c2ccncc2)n1)c1ccc[nH]1
    -0.55 | .
O=C(CNc1ccc(Cc2ccncc2)cc1)c1cccc2ccccc12
    1 | 0.32
Cc1ccc(N=C(NOCc2ccccc2[N+](=O)[O-])c2nonc2N)cc1
    . | -0.48
Cc1ccc2c(nc3s/c(=C/c4cn(Cc5ccccc5)c5ccccc45)c(=O)n32)c1C
    . | 0.68
CCOC(=O)C1=C(CSc2nc(-c3cccs3)ccc2C#N)OC(N)=C(C#N)C1c1ccccc1OC (configuration not stated)
    . | 6.8
CCc1cc(=O)oc2cc(OCC(=O)N(CC)CC)c(Cl)cc12
    -0.65 | 65
CCOc1cc(C(=O)O)ccc1OC
    . | -0.11
O=C1Nc2ccccc2/C1=c1\sc2nc3ccccc3n2c1=O
    -0.3 | -0.03
C/C(=C/C(=O)c1ccc(C)cc1)N1CCC(C(N)=O)CC1
    -0.05 | .
COc1ccccc1N1CCN(C(=O)CN(c2cc(Cl)ccc2OC)S(=O)(=O)c2ccc(C)c([N+](=O)[O-])c2)CC1
    . | 0.01
CSc1sc(C(=O)NN2C(=O)c3c(C)nc4ccc(C)cc4c3C2=O)cc1S(=O)(=O)C(C)C
    . | 1.2
Cc1ccc(N2CC(C(=O)OCC(=O)C(C)(C)C)CC2=O)cc1 (configuration not stated)
    0.5 | .
CCOC(=O)c1ccc(N2C(=O)CC(Sc3ccc(C)cc3)C2=O)cc1 (configuration not stated)
    -0.6 | -0.23
CCOC(=O)c1ccc(NC(=O)/C(=C\c2ccco2)NC(=O)c2ccccc2Br)cc1
    0.2 | 3.2

# Continued:
# Values run as follows: AID504770 | Ba CapD inh
NCCC12CC3CC(C1)CC(CCN)(C3)C2
    -0.25 | -1.4
C=CCN1C(=O)C2C(C1=O)C1C=CC2C12CC2 (configuration not stated)
    0.4 | 0.04
CCOc1ccccc1NC(=O)C1CCCN(C(=O)Nc2ccccc2)C1 (configuration not stated)
    -0.15 | .
CCOC(=O)C12CCC(C(N)=O)(CC1)CC2
    0.35 | 0.72
O=C(c1ccccc1O)N1CCc2nc3ncccc3cc2C1
    . | -0.46
CN(C)CCOC(=O)CCN1C(=O)/C(=C/c2cccc(Br)c2)SC1=S
    . | -0.39
CC12CCCCC1N(CCC(N)=O)c1ccccc12 (configuration not stated)
    0.35 | 0.99
CCOC(=O)NNC(=O)CCc1c[nH]c2ccccc12
    . | -0.05
CCCc1nc2c(=O)[nH]c3ccccc3c2o1
    0.15 | -0.56
COc1ccc(/C=C2\SC(=Nc3ccccc3)NC2=O)c2ccccc12
    . | -0.35
Cc1ccccc1CCOC(=O)N1CCN(c2cccc(Cl)c2)CC1
    . | -0.015
CC1(C)CN(c2cccc(C(=O)c3cn(-c4ccc(C(F)(F)F)cc4)nn3)c2)C1=O
    -1.1 | -0.4
CC1c2ccsc2CCN1C(=O)c1ccco1 (configuration not stated)
    0.15 | 0.41
CC1(C)c2ssc(=S)c2-c2ccccc2N1C(=O)CSc1ncn[nH]1
    0.1 | .
COc1ccc(O)c(CN2CCCCC2)c1
    0.95 | 0.02

# Next entries:
# Values run as follows: AID504770 | Ba CapD inh
O=C(NCCSCCOC(=O)N1CCN(C(=O)c2ccc(F)cc2Cl)CC1)c1sc2ccccc2c1Cl
    . | -1.1
O=C1CSC(c2ccccc2)N1c1ccccc1 (configuration not stated)
    -0.65 | 0.48
O=c1c2c(-c3ccc(Cl)cc3)csc2ncn1-n1cccc1
    -0.15 | .
CN(CC(=O)Nc1ccccc1C(F)(F)F)C(=O)CSc1nnc(-c2ccccc2F)o1
    -0.3 | .
NC1=NC(=O)C(CC(=O)NCc2ccccc2)S1 (configuration not stated)
    0.35 | -0.095
Cc1ccc(Sc2ncccc2NC(=O)C2CC2)cc1
    -0.1 | -0.1
COc1ccc(NC(=O)Cn2cnnn2)c(OC)c1
    0.8 | .
CC1=C(C(=O)OCC(F)(F)C(F)(F)F)C(c2ccccc2Br)NC(=O)N1 (configuration not stated)
    . | -0.52
CCOC(=O)c1c(NC(=O)c2ccccc2F)sc2c1CCN(C(=O)OCC)C2
    . | 1.3
c1n[nH]c(SCc2ccc(CSc3ncn[nH]3)cc2)n1
    1.1 | 0.12
CCNC(=O)N(Cc1nc(-c2ccc(C)cc2)no1)C1CCCCC1
    0.75 | -0.08
CSc1ccc(C(=O)Nc2ccc(Cl)cc2)s1
    2.1 | -0.2
Cc1ccc(NC(=S)C(C#N)C(=O)N2CCC(C)CC2)c(C)c1 (configuration not stated)
    -0.85 | -2.5
COc1ccc(C(CNc2ccc(C(F)(F)F)cn2)N(C)C)cc1OC (configuration not stated)
    0.1 | .
O=C(O)c1cccc2c1-c1ccccc1C2
    . | 0.015

# (more compounds)
# Values run as follows: AID504770 | Ba CapD inh
CC(C)C(=O)Nn1cnc2c(cnn2-c2ccccc2)c1=O
    0.4 | .
NC(=O)c1c(NC(=O)c2cccc(Br)c2)sc2c1CCC2
    1.1 | -0.27
O=c1[nH]c(/C=C2\C=Nc3ccc(Br)cc32)c(O)n1Cc1ccc(Br)cc1
    0.6 | -0.83
CC(O)C1CCC2C3CCC4=CC(=O)CCC4(C)C3CCC12C (configuration not stated)
    -0.3 | 0.28
O=C(CC1CCCCC1)NCC1CCCO1 (configuration not stated)
    1.4 | .
Cc1cc2nc(-c3cccnc3Cl)n(Cc3cccc(Cl)c3)c2cc1C
    . | 0.03
Cc1ccccc1N1CCN(C(=O)OCC(C)Cl)CC1 (configuration not stated)
    . | 0.4
O=C(CCCC1=NS(=O)(=O)c2ccccc2N1)OCc1ccc(Cl)cc1
    -0.1 | -0.21
O=C(c1ccccc1)N1CCN(C(c2ccccc2)c2ccccc2)CC1
    0.1 | 0.065
COc1ccc2c(CN(C)c3ccccc3)cc(=O)oc2c1
    0.05 | .
CC[n+]1c(C)sc2cc(SC)c(OC)cc21
    -0.3 | 41
O=C(CC1CC2CCC1C2)N1CCN(S(=O)(=O)c2ccc(F)cc2)CC1 (configuration not stated)
    0 | 0.36
Cc1ccc(CN2C(=O)/C(=C\c3ccc(C(=O)N4CCN(c5ncccn5)CC4)cc3)Oc3ccccc32)cc1
    0.8 | 50
COc1ccc2cc(C(=O)Nc3cccc(C)c3)c(=Nc3ccc(C(=O)O)cc3)oc2c1
    . | 0.5
CCSC1=C(C#N)C(c2ccc(C)cc2)C(C(=O)OC)C(=O)N1 (configuration not stated)
    -0.2 | -0.21

# The results go on.
# Values run as follows: AID504770 | Ba CapD inh
COC(=O)c1c(C)oc(C)c1S(=O)(=O)NCc1ccc(Cl)cc1
    0.45 | 0.35
O=C(Cn1cnc2ccccc21)c1ccccc1
    -0.3 | 0.29
O=C(N/N=C/c1cccc(Br)c1)C1C(c2ccccc2)C(C(=O)N2CCOCC2)C1c1ccccc1 (configuration not stated)
    . | 0.015
COc1ccc(N2CCN(c3ccc4nnc(C(F)(F)F)n4n3)CC2)cc1
    . | -0.28
Cc1cc(C(F)(F)F)nn1CC(=O)Nc1cc(Oc2cccnc2)cc([N+](=O)[O-])c1
    . | -0.17
CC1CCCC(C)N1C(=O)COC(=O)c1ccc(C(F)(F)F)cc1 (configuration not stated)
    1.3 | -0.55
CC(Sc1nc2ccccc2n1Cc1ccccc1)C(=O)O (configuration not stated)
    -0.85 | -0.29
Cn1c(=O)c2c([nH]c(=S)n2CC2CC2)n(C)c1=O
    . | -0.76
CSc1ccc(S(=O)(=O)NC2CCCCC2)cc1
    0 | 0.17
CCOC(=O)C1CCC(CNC(=O)Nc2ccc3nc(N4CCN(C)CC4)cc(C)c3c2)CC1 (configuration not stated)
    -0.1 | 43
COc1ccc(/C=C2/SC(=S)N(C)C2=O)cc1
    -0.05 | 6.6
COc1ccc(OC)c(S(=O)(=O)N2CCOCC2)c1
    1.6 | -0.93
CC(=O)Nc1nc(CC(C)C)cc(-c2cccc(Br)c2)c1C#N
    . | -0.65
CCOC(=O)N1CC=C2C(C#N)=C(N)C(C#N)(C#N)C(Cc3ccccc3)C2C1 (configuration not stated)
    0.25 | .
